BJeLR viability: BJeLR cell viability loss; AID 1554; inhibition, % (test concentration not listed); hit rate 0.17% among 300,000; BJeLR (HRASV12) viability, CellTiter-Glo ATP luminescence, 48 h; reference of the scale not given here;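 active = replicate mean above 50%; inconclusive = above 50% but judged a plate artefact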;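 also: 50 nL library stock added to about 25 µL; numbers are from one replicate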
ugtP null kill: compounds lethal to S. aureus RN4220 ugtP deletion mutant | OD600 growth, 16 h; some inactives read as strong as hits | growth inhibition, % (concentration not given with the values) | hit rate 0.54% among 330,000;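 active = z-score under -3 and OD600 up to 0.15 on both plates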;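 also: plate controls were untreated wells for no effect and antibiotic for full effect; wells of about 80 µL received 100 nL stock; the first replicate is given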
PrP 5UTR inh: inhibition of PrP 5' UTR reporter expression | hit rate 0.35% among 340,000 | inhibition, % (concentration not given with the values) | cell-based PrP 5' UTR mRNA reporter, plate reader;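 active = every replicate at 50% or more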;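 also: 0 = median of the neutral control wells; tested in H4 reporter cells; numbers are from one replicate; inactives centre near -14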
Mtb hypoxia rep: reduces hypoxia-regulated biosensor signal in M. tuberculosis; M. tuberculosis hypoxia-regulated fluorescent reporter, fluorescence; hit rate 0.1% among 300,000; fluorescence inhibition, % (test concentration not listed);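 active = 35 to 45% if threefold the growth effect, above 45% if 1.5-fold the growth effect; inactive = the rest, general growth blockers included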;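 also: wells of about 50 µL received 100 nL stock; 0% = vehicle wells and 100% = reference inhibitor wells; whole bacteria with a GFP reporter of the hypoxia response; strong numbers were not always called active; many hits fall short of the cut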
Sa RN4220 lethal: S. aureus RN4220 growth inhibition; hit rate 0.33% among 330,000; inhibition, % (no concentration beside the values); OD600, 16 h; AID 1259311;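 active = z-score of -3 or lower and OD600 up to 0.18 on both plates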;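 also: plate controls were untreated cells for no effect and reference antibiotic for full effect; stock transfer was 100 nL into about 80 µL; one replicate is shown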
Bead autofluor: flagged as autofluorescent in microsphere protease counterscreen; fluorescence intensity (concentration not given with the values); compound autofluorescence counterscreen, microsphere flow cytometry; active compounds read high; hit rate 3.1% among 360,000;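 active = at least 3 SD above the mean of all compounds, about 16000 in these data; inconclusive = too few beads counted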;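 also: 100 nL of 1 mM stock went into each well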
Mtb hypoxia rep growth: further read-out of Mtb hypoxia rep, marked with its call; growth inhibition, %; measured here: M. tuberculosis growth (absorbance);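 0% = vehicle and 100% = reference antibiotic; read after six days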
An asterisk follows results filed as active; ? = inconclusive; . = no result given.

Assay codes – A = BJeLR viability; B = ugtP null kill; C = PrP 5UTR inh; D = Mtb hypoxia rep; E = Mtb hypoxia rep growth; F = Sa RN4220 lethal; G = Bead autofluor
> O=C(C1=NNCC1c1ccccc1)C1CO1 (stereo not drawn)
  A: 6.8 | B: 3.7 | C: -18.2 | D: 12.0 | E: 10.6 | F: 0.8 | G: 2269

> Cc1cc(NC(=O)CCC(=O)N(c2cccc(F)c2)C(C(=O)NC2CCCC2)c2ccc(C)o2)no1 (stereo not drawn)
  A: -0.6 | B: -0.6 | C: -19.3 | D: -5.9 | E: -1.3 | F: -1.2 | G: 3924

> CC(C)c1ccc(NC2CCCN(C(=O)c3cccc(N4CCNC4=O)c3)C2)cc1 (stereo not drawn)
  A: -0.5 | B: 10.8 | C: -8.2 | D: 4.7 | E: -0.8 | F: 3.4 | G: 4079

> O=C(Cc1cccc(NC(=O)C2CCCN(C(=O)CCc3ccccc3)C2)c1)Nc1cccc(C(=O)N2CCOCC2)c1 (stereo not drawn)
  A: . | B: 0.7 | C: -82.2 | D: -3.2 | E: 0.1 | F: 2.7 | G: 3937

> COc1ccc(-c2nc(SCC(=O)NC3CCCCC3)n[nH]2)cc1
  A: 0.5 | B: -1.6 | C: -4.7 | D: 2.3 | E: -1.0 | F: 0.6 | G: 5316

> CCCS(=O)(=O)N1CCCC(C(=O)NCc2ccco2)C1 (stereo not drawn)
  A: -18.4 | B: 0.3 | C: -13.3 | D: 9.6 | E: 2.2 | F: 3.1 | G: 2874

> CCOC(=O)CSc1nnc(CSc2nc3sc4c(c3c(=O)[nH]2)CCC4)n1C
  A: 0.5 | B: 3.7 | C: -6.5 | D: 3.1 | E: 4.4 | F: 6.1 | G: 9729

> C1CCN(C2CCN(c3nc4nonc4nc3N3CCSCC3)CC2)C1
  A: -2.2 | B: 1.5 | C: -7.5 | D: -0.4 | E: 1.3 | F: 3.8 | G: 3004

> CC(C)CCN1CC(C(=O)NC(C)C)CC1=O (stereo not drawn)
  A: -6.9 | B: 0.2 | C: -18.6 | D: 1.8 | E: -0.1 | F: 2.7 | G: 5946

> COc1cc2c(cc1NCc1ccc3c(c1)OCO3)oc1ccccc12
  A: 7.2 | B: 18.2 | C: -9.8 | D: . | E: . | F: -1.7 | G: 3403

> Cn1c(=O)oc2cc(S(=O)(=O)NCc3ccc(C(=O)O)cc3)ccc21
  A: -3.4 | B: 2.4 | C: -13.7 | D: -4.1 | E: -3.1 | F: 1.9 | G: 3725

> COC(C[C@@H](O)CC(=O)COCc1ccccc1)OC
  A: 1.9 | B: . | C: -20.5 | D: . | E: . | F: . | G: 3064

> Cc1ccc(NC(=O)C(C)OC(=O)CCC2CCCCC2)cc1 (stereo not drawn)
  A: -6.2 | B: 0.9 | C: -0.1 | D: -1.5 | E: 15.2 | F: 5.0 | G: 6156

> O=C(CNC(=S)N(Cc1ccccc1)Cc1cccnc1)NC1CCCCC1
  A: -9.2 | B: 0.8 | C: -23.5 | D: 1.0 | E: -13.5 | F: -1.3 | G: 2578

> Cc1nn2c(-c3ccccc3)nnc2c2ccccc12
  A: . | B: -10.5 | C: -34.8 | D: 9.0 | E: -4.0 | F: 6.4 | G: 8965

> COc1ccc(N(CC(=O)NCc2ccccc2)C(=O)CCC(=O)Nc2cc(C)ccn2)c(OC)c1
  A: -1.1 | B: 4.6 | C: -25.2 | D: 10.0 | E: 8.3 | F: 5.4 | G: 5128

> C[C@@H]1CN([C@H](C)CO)C(=O)c2cccc(NS(=O)(=O)c3cccs3)c2O[C@H]1CN(C)Cc1ccccc1
  A: . | B: -7.0 | C: -41.5 | D: 7.0 | E: 8.9 | F: -13.5 | G: 4006

> CCOC(=O)c1c(C)[nH]c(C)c1C(=O)COC(=O)c1ccc(Cl)c(S(N)(=O)=O)c1
  A: 9.7 | B: . | C: -20.6 | D: . | E: . | F: . | G: 2616

> Cc1cccc(C(=O)NC2CCN(CC(=O)Nc3ccc4c(c3)OCO4)CC2)c1
  A: 1.3 | B: 6.1 | C: -27.9 | D: -4.2 | E: 4.4 | F: -2.8 | G: 4360

> CC1=C(C(=O)OCC2CCCO2)C(c2ccccc2Cl)NC(=O)N1 (stereo not drawn)
  A: 1.3 | B: 5.3 | C: -10.9 | D: -1.6 | E: 2.8 | F: 15.9 | G: 3187

Sorted by SMILES length (descending): 6 of the compounds above
Assay codes – A = BJeLR viability; B = ugtP null kill; C = PrP 5UTR inh; D = Mtb hypoxia rep; E = Mtb hypoxia rep growth; F = Sa RN4220 lethal; G = Bead autofluor
> O=C(Cc1cccc(NC(=O)C2CCCN(C(=O)CCc3ccccc3)C2)c1)Nc1cccc(C(=O)N2CCOCC2)c1 (stereo not drawn)
  A: . | B: 0.7 | C: -82.2 | D: -3.2 | E: 0.1 | F: 2.7 | G: 3937

> COc1ccc(N(CC(=O)NCc2ccccc2)C(=O)CCC(=O)Nc2cc(C)ccn2)c(OC)c1
  A: -1.1 | B: 4.6 | C: -25.2 | D: 10.0 | E: 8.3 | F: 5.4 | G: 5128

> CC(C)c1ccc(NC2CCCN(C(=O)c3cccc(N4CCNC4=O)c3)C2)cc1 (stereo not drawn)
  A: -0.5 | B: 10.8 | C: -8.2 | D: 4.7 | E: -0.8 | F: 3.4 | G: 4079

> Cc1cccc(C(=O)NC2CCN(CC(=O)Nc3ccc4c(c3)OCO4)CC2)c1
  A: 1.3 | B: 6.1 | C: -27.9 | D: -4.2 | E: 4.4 | F: -2.8 | G: 4360

> Cn1c(=O)oc2cc(S(=O)(=O)NCc3ccc(C(=O)O)cc3)ccc21
  A: -3.4 | B: 2.4 | C: -13.7 | D: -4.1 | E: -3.1 | F: 1.9 | G: 3725

> CC1=C(C(=O)OCC2CCCO2)C(c2ccccc2Cl)NC(=O)N1 (stereo not drawn)
  A: 1.3 | B: 5.3 | C: -10.9 | D: -1.6 | E: 2.8 | F: 15.9 | G: 3187

(further entries)
Assay codes – A = BJeLR viability; B = ugtP null kill; C = PrP 5UTR inh; D = Mtb hypoxia rep; E = Mtb hypoxia rep growth; F = Sa RN4220 lethal; G = Bead autofluor
> CCN(CC)Cc1c(O)ccc2c(=O)c(-c3ccccc3)coc12
  A: -8.6 | B: -0.2 | C: -34.3 | D: -3.2 | E: 2.0 | F: 1.4 | G: 3900

> CCn1c(SCc2cccc(C(F)(F)F)c2)nnc1-c1ccco1
  A: -1.5 | B: 5.1 | C: -27.7 | D: 5.9 | E: 5.3 | F: 13.7 | G: 22937*

> CC1(C)CC(=O)c2c(Cc3ccccc3)noc2C1
  A: -1.1 | B: -60.4 | C: -14.4 | D: 13.6 | E: -0.3 | F: 11.4 | G: 3193

> CCC(C)NC(=O)c1cc(-c2ccccc2O)on1 (stereo not drawn)
  A: -4.4 | B: -7.1 | C: -15.9 | D: 6.9 | E: 7.5 | F: -12.2 | G: 5548

> Cc1nc(Cl)sc1C(=O)O
  A: -5.1 | B: 1.6 | C: -5.0 | D: -6.7 | E: 0.0 | F: 2.8 | G: 8988

> CC(=NNC(=O)c1c[nH]c2ccccc12)c1ccco1
  A: . | B: 1.9 | C: . | D: 17.9 | E: 5.5 | F: 2.6 | G: .

> Cc1ccc(NC(=O)CSCc2cc(=O)n3ccsc3n2)cc1
  A: -5.6 | B: 10.8 | C: 4.7 | D: -3.3 | E: -12.5 | F: 6.1 | G: 4037

> O=C(c1cc(COc2c(F)cccc2F)on1)N1CCC(c2ccccc2F)C1 (stereo not drawn)
  A: -3.6 | B: -4.0 | C: -17.8 | D: -10.5 | E: -38.4 | F: 4.5 | G: 4708

> O=C(COC(=O)C1(c2ccc(Cl)cc2)CCCC1)Nc1ncc(C(F)(F)F)cc1Cl
  A: -0.5 | B: -0.6 | C: -32.1 | D: -6.8 | E: -11.1 | F: 1.6 | G: 2304

> O=C(Nc1nccs1)c1cc(S(=O)(=O)N2CCCCC2)ccc1Cl
  A: 7.4 | B: 11.3 | C: -25.2 | D: . | E: . | F: -0.9 | G: 2536

> Cc1ccc(-n2nc(C)c(/C=N/NC(=O)c3cccnc3)c2Cl)cc1
  A: 4.8 | B: . | C: -30.7 | D: . | E: . | F: . | G: 2676

> CCOc1ccc(N(CC)S(=O)(=O)c2cccc3nsnc23)cc1
  A: -3.1 | B: 10.5 | C: -11.8 | D: 12.5 | E: -5.8 | F: 5.1 | G: 3749

> CCn1c(=S)[nH]c2nc3c(cc2c1=O)CCCC3
  A: 7.3 | B: -2.2 | C: -23.1 | D: -2.3 | E: 9.0 | F: 2.6 | G: 9516

> CCCCn1c(N)c(N(CC)C(=O)CSc2nnc(-c3ccco3)n2CC)c(=O)[nH]c1=O
  A: 1.3 | B: 1.1 | C: 0.3 | D: -8.2 | E: 8.3 | F: -2.7 | G: ?

> CC(CCC(=O)O)C1CCC2C3C(=O)CC4CC(=O)CC[C@]4(C)C3CC(=O)[C@]12C (stereo partly drawn)
  A: . | B: -6.1 | C: . | D: -2.3 | E: -4.8 | F: 0.8 | G: .

> COc1ccccc1C(=O)COC(=O)c1ccc(N(C)C)cc1
  A: -3.6 | B: 7.9 | C: -84.4 | D: 5.3 | E: 5.5 | F: 15.1 | G: 5011

> O=C(O)C/C(=C\c1cc(Br)cs1)c1nc2ccccc2o1
  A: 10.7 | B: -10.0 | C: -0.5 | D: 3.4 | E: -2.3 | F: 13.4 | G: 5212
